Screening data as filed in PubChem BioAssay.
DUX4 inh – blocks DUX4-driven transcriptional activation; 293T-iDUX4 ZSCAN4-Gaussia luciferase reporter, 24 h; active compounds read low; activity change, negative = inhibition, % (test concentration not listed); 37,000 tested, 0.8% active; AID 1224904;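 active = -10% or lower and over 25 points stronger than a control reporter; inconclusive = -10% or lower with a smaller gap; inactive = above -10%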;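 also: 0% = median of neutral control wells and -100% = median of positive control wells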
DUX4 inh difference – further read-out of DUX4 inh, marked with its call; Gaussia minus Italica difference, %; measured here: selective DUX4 reporter inhibition;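 worked out from the two reporters; negative = selective loss of the DUX4 reporter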
DUX4 inh control – recorded beside DUX4 inh, whose call it bears; activity change, negative = inhibition, %; measured here: Italica tet-on control reporter;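 0 = neutral control and -100 = positive control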
The depositor's hits bear a star; ? = inconclusive; . = no result given.

DUX4 inh	DUX4 inh difference	DUX4 inh control	SMILES
2	2	0.6	CCCNC(=O)N1C[C@H]2[C@@H](c3ccccc31)[C@@H](CO)N2C(=O)c1ccccc1
5	2	2.8	CO[C@@H]1CN(C)C(=O)c2ccc(NS(C)(=O)=O)cc2OC[C@@H](C)N(Cc2ccccc2)C[C@H]1C
11	9	1.3	CCS(=O)(=O)N1CC2(CN[C@H](CO)c3c2c2ccc(OC)cc2n3C)C1
-6	13	-19	COC(=O)C[C@@H]1C[C@H]2c3cc(NC(=O)Nc4ccc(C(F)(F)F)cc4)ccc3O[C@H]2[C@@H](CO)O1
-2	1	-2.7	CCC(=O)NC[C@H]1[C@@H](c2ccc(-c3ccc(F)cc3)cc2)[C@@H](CO)N1C(=O)CC
3	-3	6.1	C[C@@H]1CCCCO[C@@H](CN(C)Cc2ccc(C(F)(F)F)cc2)[C@@H](C)CN([C@@H](C)CO)C(=O)c2cc(NC(=O)CCCN(C)C)ccc2O1
2	1	1.1	O=C(Cc1ccccc1)N1C[C@@H]2[C@H](c3ccccc31)[C@H](CO)N2C(=O)Nc1ccc(F)cc1
6	4	2.0	O=C(C[C@H]1CC[C@@H]2[C@H](COC[C@H](O)CN2S(=O)(=O)c2ccc(F)cc2)O1)NCCN1CCCCC1
5	2	3.5	CCC(=O)N1[C@H](CN(CC)C(C)=O)[C@@H](c2ccc(-c3ccccc3)cc2)[C@@H]1CO
-1	-4	3.1	COC(=O)C[C@@H]1CC[C@@H]2[C@@H](COc3ccc(NS(=O)(=O)c4ccc(C)cc4)cc3C(=O)N2C)O1
-3	-4	1.3	CCC(=O)N1[C@@H]2c3cccc(=O)n3C[C@@H]2[C@@H](CO)[C@@H]1C(=O)N[C@@H](C)c1ccccc1
3	12	-8.7	CN(C)c1ccc2c(c1)[C@@H]1C[C@H](CC(=O)NCc3cccc(F)c3)O[C@@H](CO)[C@@H]1O2
0	-6	5.9	Cc1ccc(S(=O)(=O)N2C[C@H](O)COC[C@@H]3O[C@@H](CC(=O)NCc4ccc5c(c4)OCO5)CC[C@H]32)cc1
7	5	2.1	CCC(=O)Nc1ccc2c(c1)C(=O)N(C)C[C@@H](OC)[C@@H](C)CN(C(=O)c1ccc(F)cc1)[C@H](C)CO2
5	2	2.7	N#C[C@H]1[C@@H](c2ccccc2)[C@H](CO)N1C(=O)Cc1ccccc1
?	.	.	CS(=O)(=O)Nc1ccc2c(c1)[C@H]1C[C@@H](CC(=O)NCc3ccc(Oc4ccccc4)cc3)O[C@H](CO)[C@H]1O2
0	4	-4.0	COc1ccc2c3c([nH]c2c1)[C@@H](CO)N(C(=O)NC(C)C)CC31CN(C(=O)c2ccccn2)C1
2	4	-1.6	COc1ccc(NC(=O)Nc2ccc3c(c2)C(=O)N([C@@H](C)CO)C[C@@H](C)[C@@H](CN(C)Cc2ccncc2)OCCCC[C@@H](C)O3)cc1
11	4	6.9	CN(C)CCCNC(=O)C[C@@H]1CC[C@@H]2[C@H](COC[C@@H](O)CN2C(=O)c2ccncc2)O1
-2	3	-4.9	O=C(C[C@H]1CC[C@@H]2[C@H](COC[C@@H](O)CN2C(=O)c2ccccc2F)O1)NCc1ccc(Cl)c(Cl)c1
-5	0	-4.3	C[C@@H]1CCCCO[C@@H](CN(C)C(=O)NC2CCCCC2)[C@@H](C)CN([C@H](C)CO)C(=O)c2cc(NC(=O)Nc3cccc4ccccc34)ccc2O1
4	-6	9.4	COc1ccc(CN2CC3(CCN(C(=O)C4CCOCC4)CC3)c3c(n(C)c4cc(OC)ccc34)[C@@H]2CO)cc1
3	-2	5.6	COCCNC(=O)C[C@H]1C[C@H]2c3cc(NC(=O)Nc4ccc(C(F)(F)F)cc4)ccc3O[C@H]2[C@H](CO)O1
4	-11	15	O=C(NC1CCCC1)N1CCCCN2[C@H](CO)[C@H](c3ccc(-c4cncnc4)cc3)[C@H]2C1
9	12	-2.9	O=C(C[C@@H]1CC[C@H]2NC[C@H](O)COC[C@@H]2O1)NCc1ccc2c(c1)OCO2

(further entries)
DUX4 inh	DUX4 inh difference	DUX4 inh control	SMILES
-1	-5	4.6	C[C@@H]1CCCCO[C@H](CN(C)C(=O)c2ccncc2)[C@H](C)CN([C@H](C)CO)C(=O)c2cc(NC(=O)CCC(F)(F)F)ccc2O1
3	-2	4.9	O=C(c1cccc(F)c1)N1CCCCN2[C@H](CO)[C@H](c3ccc(-c4ccccc4)cc3)[C@H]2C1
2	1	1.0	N#C[C@@H]1[C@@H](c2ccc(-c3ccncc3)cc2)[C@@H](CO)N1C(=O)CN1CCOCC1
2	-1	3.0	C[C@@H]1CCCCO[C@@H](CN(C)S(=O)(=O)c2cn(C)cn2)[C@@H](C)CN([C@H](C)CO)C(=O)c2cc(NC(=O)Nc3cccc4ccccc34)ccc2O1
3	0	3.8	COc1cccc(CN2[C@H](CO)[C@@H]3c4ccccc4N(C(=O)CC(F)(F)F)C[C@@H]32)c1
3	1	1.9	COCCNC(=O)C[C@@H]1CC[C@@H]2[C@H](COC[C@H](O)CN2C(=O)c2cc(Cl)cc(Cl)c2)O1
0	-4	4.2	COc1ccc(NC(=O)N2C[C@H](O)COC[C@@H]3O[C@H](CC(=O)N4CCOCC4)CC[C@H]32)cc1
?	.	.	COc1ccc(-c2ccc3c(c2)[C@H]2[C@H](CCN2S(=O)(=O)c2ccc(OC)cc2)[C@@H](CO)N3)cc1
-9	-10	0.8	CC(C)NC(=O)N1[C@H](CO)[C@@H](c2ccccc2)[C@@H]1CN(C)C(=O)c1ccccc1
-2	-4	1.4	O=C(Nc1ccccc1)N1C[C@@H]2[C@H](c3ccccc31)[C@H](CO)N2C(=O)c1ccccn1
19	13	6.0	CN(C)C(=O)c1ccc(-c2ccc3c(c2)[C@@H]2[C@@H](CCN2C(=O)C2CCOCC2)[C@@H](CO)N3C)cc1
4	10	-6.2	O=C(C[C@@H]1C[C@@H]2c3cc(NC(=O)Nc4ccccc4)ccc3O[C@@H]2[C@@H](CO)O1)NCc1ccccc1
-1	-5	4.0	C/C=C/c1ccc([C@H]2[C@@H](CO)N(C(=O)NC3CCCC3)[C@H]2C#N)cc1
7	-3	9.4	Cc1ccccc1S(=O)(=O)N1CC(=O)N2[C@H](CO)[C@@H](c3ccc(C#CCC4CCCC4)cc3)[C@H]2C1
-6	-7	0.9	COc1ccc2c3c(n(C)c2c1)[C@H](CO)N(Cc1ccc(Cl)cc1)CC31CN(C(=O)NC(C)C)C1
?	.	.	CCS(=O)(=O)N1CCC2(CC1)CN(S(=O)(=O)c1ccccc1)[C@H](CO)c1c2c2ccc(OC)cc2n1C
6	-1	6.8	CCC(=O)N1CC[C@@H]2[C@H](CO)Nc3ccc(C#Cc4cccc(OC)c4)cc3[C@@H]21

Some values from the entries so far.
Entry of `COc1ccc2c3c([nH]c2c1)[C@@H](CO)N(C(=O)NC(C)C)CC31CN(C(=O)c2ccccn2)C1` in DUX4 inh difference: 4
Entry of `CCC(=O)Nc1ccc2c(c1)C(=O)N(C)C[C@@H](OC)[C@@H](C)CN(C(=O)c1ccc(F)cc1)[C@H](C)CO2` in DUX4 inh control: 2.1
Entry of `O=C(C[C@@H]1CC[C@H]2NC[C@H](O)COC[C@@H]2O1)NCc1ccc2c(c1)OCO2` in DUX4 inh difference: 12
Entry of `CN(C)C(=O)c1ccc(-c2ccc3c(c2)[C@@H]2[C@@H](CCN2C(=O)C2CCOCC2)[C@@H](CO)N3C)cc1` in DUX4 inh control: 6.0

Exported tab-delimited: entries from further up
Molecule	DUX4 inh	DUX4 inh difference	DUX4 inh control
CCS(=O)(=O)N1CCC2(CC1)CN(S(=O)(=O)c1ccccc1)[C@H](CO)c1c2c2ccc(OC)cc2n1C	?	.	.
Cc1ccccc1S(=O)(=O)N1CC(=O)N2[C@H](CO)[C@@H](c3ccc(C#CCC4CCCC4)cc3)[C@H]2C1	7	-3	9.4
C/C=C/c1ccc([C@H]2[C@@H](CO)N(C(=O)NC3CCCC3)[C@H]2C#N)cc1	-1	-5	4.0
COc1ccc(-c2ccc3c(c2)[C@H]2[C@H](CCN2S(=O)(=O)c2ccc(OC)cc2)[C@@H](CO)N3)cc1	?	.	.
C[C@@H]1CCCCO[C@@H](CN(C)S(=O)(=O)c2cn(C)cn2)[C@@H](C)CN([C@H](C)CO)C(=O)c2cc(NC(=O)Nc3cccc4ccccc34)ccc2O1	2	-1	3.0
COc1ccc(NC(=O)N2C[C@H](O)COC[C@@H]3O[C@H](CC(=O)N4CCOCC4)CC[C@H]32)cc1	0	-4	4.2
O=C(C[C@@H]1C[C@@H]2c3cc(NC(=O)Nc4ccccc4)ccc3O[C@@H]2[C@@H](CO)O1)NCc1ccccc1	4	10	-6.2

Entries of single compounds, quoted from the list. Order of screens: DUX4 inh | DUX4 inh difference | DUX4 inh control
Shown for C/C=C/c1ccc([C@H]2[C@@H](CO)N(C(=O)NC3CCCC3)[C@H]2C#N)cc1 = -1 | -5 | 4.0
Shown for CCS(=O)(=O)N1CCC2(CC1)CN(S(=O)(=O)c1ccccc1)[C@H](CO)c1c2c2ccc(OC)cc2n1C = ? | . | .

Not all compounds are listed; count on the stated rates, not on these rows.
